VDR inh – Inhibitors of the vitamin D receptor (VDR): qHTS; Vitamin D3 receptor (Homo sapiens), P11473; VDR-SRC2-3 peptide fluorescence polarization, 2 h; Potency, µM, inactives show max response, negative = inhibition, actives largely listed as inhibitors; 400,000 compounds, 0.93% hits; active = well fitted inhibition curve with a large enough effect; inconclusive = small, poorly fitted or top-dose-only effect, or another doubt; inactive = no such curve, though single readings can be large or run the other way; also: series mostly up to about 120 µM
Target sequence (P11473 whole entry, looked up): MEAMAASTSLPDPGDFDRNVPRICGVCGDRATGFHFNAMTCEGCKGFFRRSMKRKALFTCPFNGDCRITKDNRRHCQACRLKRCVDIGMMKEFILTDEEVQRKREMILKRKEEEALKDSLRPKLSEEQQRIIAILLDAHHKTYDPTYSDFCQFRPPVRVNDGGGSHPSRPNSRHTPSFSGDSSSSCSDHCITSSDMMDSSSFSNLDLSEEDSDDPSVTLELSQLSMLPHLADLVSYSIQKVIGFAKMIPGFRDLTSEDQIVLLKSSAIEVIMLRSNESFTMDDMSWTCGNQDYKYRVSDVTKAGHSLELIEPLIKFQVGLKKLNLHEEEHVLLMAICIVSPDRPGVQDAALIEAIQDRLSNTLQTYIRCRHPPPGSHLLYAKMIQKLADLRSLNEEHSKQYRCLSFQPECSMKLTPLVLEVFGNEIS
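Signal is fluorescence polarization, reporting how far test compounds block the interaction of VDR with the SRC2-3 coregulator peptide after a 2 h room-temperature incubation.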
The depositor's hits bear a star; & = joins results of further samples; [ ] = dose if it differs, or a comment. % is scaled to controls: 0 for no effect and ±100 for the full control effect; potency is read from the fitted curve at half-maximal effect.

How did Cc1nnsc1Sc1cccc(C(F)(F)F)c1 do in these assays?
VDR inh: -23%

How did CCCc1cc(=O)[nH]c(SCC(=O)N2CCN(S(=O)(=O)c3ccc(Cl)cc3)CC2)n1 do in these assays?
VDR inh: 6%

What do the screens show for `CCc1ccc(-n2nc(CO)c(C(=O)NCCCc3ccccc3)n2)cc1`?
VDR inh: -5%

Results for CSCCC(NC(=O)c1ccccc1)C(=O)N1CCN(C(C)=O)CC1 (centres undefined) ?
VDR inh: -12%

What do the screens show for `CCn1c(SCc2ccccc2Cl)nc2ccccc21`?
VDR inh: 5%

What do the screens show for `C=CCNS(=O)(=O)c1ccc(OCC(=O)OCC)cc1`?
VDR inh: -5%

What do the screens show for `COc1cc2c(cc1OC)/C(=C/C(=O)c1ccc(F)cc1)NCC2`?
VDR inh: 4%

How did CC(C)Cn1cnc2c(c(-c3ccccc3)c(-c3ccccc3)n2Cc2ccco2)c1=N do in these assays?
VDR inh: -13%

Results for COc1cccc(CNc2ncnc3c2nnn3C)c1 ?
VDR inh: -2%

How did CCc1ccc(C(=O)c2cn(CC(=O)Nc3ccc4c(c3)OCO4)c3ccc(CC)cc3c2=O)cc1 do in these assays?
VDR inh: 4%

What do the screens show for `CCOC(=O)C1CCN(C(=O)CCNS(=O)(=O)c2cc(Br)cnc2N)CC1`?
VDR inh: -17%

What do the screens show for `CC(C)C(=O)Nc1ccc2oc(-c3cc(F)c(F)cc3Cl)nc2c1`?
VDR inh: -1%

Results for CCC1(c2ccccc2)NC(=O)N(CC(=O)Nc2ccc(S(N)(=O)=O)cc2)C1=O (centres undefined) ?
VDR inh: -23%

Results for O=C1CC(c2nc(-c3cccc(Cl)c3)no2)CN1c1ccc2c(c1)OCCO2 (centres undefined) ?
VDR inh: -1%

Results for COC(=O)[C@@]1(Cc2ccccc2)[C@H]2C(=O)N(C)C(=O)[C@H]2[C@H]2CN=C(SCc3ccc(C#N)cc3)N21 ?
VDR inh: -22%

Results for COC(=O)CSC1=C(C#N)C(c2ccccc2)CC(=O)N1 (centres undefined) ?
VDR inh: -7%

Results for Cc1nc(SCC(=O)NCC2COc3ccccc3O2)c2c(C)c(C)sc2n1 (centres undefined) ?
VDR inh: 25%

How did O=C(O)c1cc(NC(=O)c2ccc([N+](=O)[O-])cc2)cc(NC(=O)c2ccc([N+](=O)[O-])cc2)c1 do in these assays?
VDR inh: 1%

What do the screens show for `O=C(CN1CCN(c2ncccn2)CC1)N1CCc2ccccc21`?
VDR inh: -15%

What do the screens show for `O=C1NC(c2ccc3c(c2)OCO3)Nc2ccccc21` (centres undefined)?
VDR inh: 17%

How did O=C(Nc1ccc2oc(-c3cc(Br)ccc3Cl)nc2c1)c1ccc2ccccc2c1 do in these assays?
VDR inh: -7%

Results for O=C(NCCCNC(=O)c1cnccn1)c1ccc(Cl)c(Cl)c1 ?
VDR inh: -5%

What do the screens show for `CCOC(=O)C(=O)Nc1sc(C(=O)N(CC)CC)c(C)c1C#N`?
VDR inh: -9%

Results for N#Cc1c(-c2ccc(Cl)cc2)c(-c2ccc(Cl)cc2)nn(CCOC(=O)CCC(=O)O)c1=O ?
VDR inh: 0%

What do the screens show for `CC/C=C\C/C=C\C/C=C\C/C=C\C/C=C\C/C=C\CCC(=O)NCCO`?
VDR inh: -12%

How did COc1cc(NC(=O)COC(=O)CNS(=O)(=O)c2ccc(F)c(F)c2F)cc(OC)c1 do in these assays?
VDR inh: 6%

Results for CCN(Cc1cc2cc(C)ccc2[nH]c1=O)S(=O)(=O)c1ccccc1 ?
VDR inh: -3%

Results for Cn1c(-c2ccc[nH]c2=O)nc2cc(Cl)ccc21 ?
VDR inh: -9%

What do the screens show for `COc1ccccc1-n1cc(C(=O)N2CCCC(CO)(Cc3ccccc3C)C2)cn1` (centres undefined)?
VDR inh: 3%

What do the screens show for `COc1ccc(C2CC(=O)c3cc(-c4nc(-c5cccc([N+](=O)[O-])c5)cs4)c(=O)n(-c4ccc(C)c(C)c4)c3C2)cc1` (centres undefined)?
VDR inh: -24%

Results for O=C(Nc1ccc(S(=O)(=O)NCC2CCCO2)cc1)C1CC(=O)N(c2ccccc2)C1 (centres undefined) ?
VDR inh: 10%

How did CCCc1cc(=O)[nH]c(Nc2cc(Cl)ccc2OC)n1 do in these assays?
VDR inh: 10%

What do the screens show for `Cc1ccccc1-n1c(SCC(=O)Nc2ccc(Cl)cc2F)nnc1-c1cc2occc2n1C`?
VDR inh: 12%

How did CCCNC(=S)N1CCC(NC(=O)c2ccc(OC)cc2)CC1 do in these assays?
VDR inh: -6%

How did N/C(=N\N=C\c1ccc(Br)o1)c1nonc1N do in these assays?
VDR inh: -3%

What do the screens show for `OCC(O)CNC(=S)NC1CCCCC1` (centres undefined)?
VDR inh: -2%

Results for OC(CN1CC=C(/C=C/c2ccc(Br)cc2)CC1)c1ccccc1 (centres undefined) ?
VDR inh: 0%

What do the screens show for `O=S(=O)(c1ccccc1)N1CCc2ccccc2C1`?
VDR inh: -5%

Results for COC(=O)C1CSc2[nH]c(=O)sc2C1c1ccc(O)c(OC)c1 (centres undefined) ?
VDR inh: -8%

What do the screens show for `C/C(=N/NC(=O)CSc1nc2ccccc2n1C)c1ccco1`?
VDR inh: 16%

5 records drawn at random from the list so far, as already listed:
How did N/C(=N\N=C\c1ccc(Br)o1)c1nonc1N do in these assays?
VDR inh: -3%

What do the screens show for `Cc1ccccc1-n1c(SCC(=O)Nc2ccc(Cl)cc2F)nnc1-c1cc2occc2n1C`?
VDR inh: 12%

What do the screens show for `O=S(=O)(c1ccccc1)N1CCc2ccccc2C1`?
VDR inh: -5%

Results for COC(=O)C1CSc2[nH]c(=O)sc2C1c1ccc(O)c(OC)c1 (centres undefined) ?
VDR inh: -8%

What do the screens show for `OCC(O)CNC(=S)NC1CCCCC1` (centres undefined)?
VDR inh: -2%

Entries shown so far with a Cl atom:
How did CCCc1cc(=O)[nH]c(SCC(=O)N2CCN(S(=O)(=O)c3ccc(Cl)cc3)CC2)n1 do in these assays?
VDR inh: 6%

What do the screens show for `CCn1c(SCc2ccccc2Cl)nc2ccccc21`?
VDR inh: 5%

What do the screens show for `CC(C)C(=O)Nc1ccc2oc(-c3cc(F)c(F)cc3Cl)nc2c1`?
VDR inh: -1%

Results for O=C1CC(c2nc(-c3cccc(Cl)c3)no2)CN1c1ccc2c(c1)OCCO2 (centres undefined) ?
VDR inh: -1%

How did O=C(Nc1ccc2oc(-c3cc(Br)ccc3Cl)nc2c1)c1ccc2ccccc2c1 do in these assays?
VDR inh: -7%

Results for O=C(NCCCNC(=O)c1cnccn1)c1ccc(Cl)c(Cl)c1 ?
VDR inh: -5%

Results for N#Cc1c(-c2ccc(Cl)cc2)c(-c2ccc(Cl)cc2)nn(CCOC(=O)CCC(=O)O)c1=O ?
VDR inh: 0%

Results for Cn1c(-c2ccc[nH]c2=O)nc2cc(Cl)ccc21 ?
VDR inh: -9%

How did CCCc1cc(=O)[nH]c(Nc2cc(Cl)ccc2OC)n1 do in these assays?
VDR inh: 10%

What do the screens show for `Cc1ccccc1-n1c(SCC(=O)Nc2ccc(Cl)cc2F)nnc1-c1cc2occc2n1C`?
VDR inh: 12%

(next part)
Results for O=C(CN1/C(=C(/O)c2ccccc2)C(=O)c2ccccc2S1(=O)=O)c1ccccc1 ?
VDR inh: 4%

What do the screens show for `CS(=O)(=O)N(CC(=O)NC1CCCCC1)c1cccc(F)c1`?
VDR inh: -7%

What do the screens show for `Cc1noc(C)c1S(=O)(=O)N(C)C[C@H]1Oc2ccc(NC(=O)NC3CCCCC3)cc2C(=O)N([C@H](C)CO)C[C@@H]1C`?
VDR inh: -4%

Results for Cn1c(=O)n(C)c2cc([N+](=O)[O-])c(N3CCN(S(C)(=O)=O)CC3)cc21 ?
VDR inh: -8%

Results for C[n+]1ccc(CC2C(=[N+]([O-])[O-])C=Nc3ncnn32)cc1 (centres undefined) ?
VDR inh: -7%

How did O=C(CN1C(=O)NC2(CCCCC2)C1=O)Nc1ccc(Cl)cc1 do in these assays?
VDR inh: -8%

Results for CC(C)(C)c1cc(-c2csc(Nc3ccccc3)[n+]2Cc2ccc(C(=O)O)cc2)cc(C(C)(C)C)c1O ?
VDR inh: 79µM*

Results for C=CCNC(=S)N/N=C/c1ccc(C)cc1C ?
VDR inh: 1%

What do the screens show for `CCn1cc(C(=O)O)c(=O)c2cc(F)c(N3CCN(C(=S)NC(=O)c4cccc(F)c4)CC3)cc21`?
VDR inh: -10%

Results for O=C(c1ccco1)N1CCC2(CC1)CN(C(c1ccccc1)c1ccccc1)C2 ?
VDR inh: -11%

What do the screens show for `CCOc1ccc2c(c1)C(c1ccccc1)=NNC(c1ccccc1)=N2`?
VDR inh: 1%

How did CC(=O)Nc1ccc(S(=O)(=O)NCc2csc(-c3cccnc3)n2)cc1 do in these assays?
VDR inh: 5%

How did O=C(COC(=O)C12CC3CC(CC(C3)C1)C2)NCc1ccccc1 do in these assays?
VDR inh: -19%

How did COc1cc(C(=O)NCC(=O)OCc2cc(=O)oc3c(C)c(C)ccc23)cc(OC)c1OC do in these assays?
VDR inh: 11%

How did C[C@H](N)C(=O)N[C@@H](C)P(=O)(O)O do in these assays?
VDR inh: 4%

What do the screens show for `Cc1oc(-c2ccccc2Cl)nc1CSc1nc2c(c(=O)[nH]1)CCCC2`?
VDR inh: -6%

Results for COC(=O)c1cc2cc(Cl)ccc2nc1SC ?
VDR inh: 5%

What do the screens show for `Cc1cc(C)c(O)c(-c2cc(C(=O)Nc3ccc(S(=O)(=O)N4CCOCC4)cc3)[nH]n2)c1`?
VDR inh: 28%

Results for C/C=C(/C)C(=O)O[C@@H]1c2cc3c(c(OC)c2-c2c(cc(OC)c(OC)c2OC)[C@@H](OC(C)=O)[C@@H](C)[C@H]1C)OCO3 ?
VDR inh: 41%[activator]

Results for CCOC(=O)N1CCC(N(CCN(C)C)C(=S)Nc2cccc(C)c2)CC1 ?
VDR inh: inconclusive

What do the screens show for `CC(=O)NC(C)(C)C1CC=C(C)/C(=N\O)C1` (centres undefined)?
VDR inh: -8%

How did Cc1ccc(C)c(N)c1 do in these assays?
VDR inh: 11%

Results for CC(Sc1nncn1C)C(=O)Nc1nnc(-c2ccccc2)s1 (centres undefined) ?
VDR inh: -5%

How did COc1cccc(C(=O)Nc2cc3cc(OC)ccc3oc2=O)c1 do in these assays?
VDR inh: 19%

How did CCOC(=O)c1c(NC(=O)/C=C/c2ccc(C(C)C)cc2)sc2c1CCC2 do in these assays?
VDR inh: -27%

What do the screens show for `Cc1ccccc1NS(=O)(=O)c1ccc2c(c1)oc(=O)n2C`?
VDR inh: 6%

How did COc1cc(OC)c2ccc(=O)oc2c1C(CC(=O)N1CCN(c2ccccc2)CC1)c1ccc2c(c1)OCO2 (centres undefined) do in these assays?
VDR inh: 0%&-5%

What do the screens show for `COc1ccc(NC(=O)OCCN2CCN(Cc3ccccc3)CCC2=O)cc1`?
VDR inh: -4%&12%

What do the screens show for `Cc1ccc(S(=O)(=O)NNC(=S)Nc2cccc(F)c2)cc1`?
VDR inh: -20%

What do the screens show for `O=C(CC1Nc2ccccc2NC1=O)NCC1COc2ccccc2O1` (centres undefined)?
VDR inh: -7%

What do the screens show for `COC(=O)c1c(NC(=O)CN2CCC(C(N)=O)CC2)c2c(C)cccc2n1C`?
VDR inh: -9%

How did CC(C(=O)OCC(=O)Nc1cccc(S(=O)(=O)N(C)C)c1)N1C(=O)c2ccccc2C1=O (centres undefined) do in these assays?
VDR inh: 8%

How did COc1ccccc1C(=O)N/N=C/c1ccc2c(c1)OCO2 do in these assays?
VDR inh: 3%

What do the screens show for `COc1ccccc1N1CCN(C(=O)c2sc3ncn(CC(=O)N4CCC(C)CC4)c(=O)c3c2C)CC1`?
VDR inh: 2%

What do the screens show for `O=C(CSc1nc(-c2ccc(Cl)cc2)nc2c1Cc1ccccc1O2)N1CCCCC1`?
VDR inh: -12%

Results for Cc1ccccc1N1CC(C(=O)Nc2nnc(SCCN3CCOCC3)s2)CC1=O (centres undefined) ?
VDR inh: -15%

Results for CCOc1ccc(N2C(=O)CC(N(C)Cc3ccccc3)C2=O)cc1 (centres undefined) ?
VDR inh: 3%

What do the screens show for `Clc1ccc(OCCSc2ncccn2)cc1`?
VDR inh: -1%

Results for CN(CC(=O)NCc1ccncc1)S(=O)(=O)c1ccc(Cl)cc1 ?
VDR inh: -13%

Results for CCOc1ccc(CNC(=O)C2CCN(c3nnc(C)c4c(C)n(-c5ccc(C)cc5)nc34)CC2)cc1 ?
VDR inh: -9%

How did CC1=C(C(=O)Nc2ccc(C)cc2C)C(c2cccn2C)n2ncnc2N1 (centres undefined) do in these assays?
VDR inh: 10%

Results for Cn1ccc(=S)c2ccccc21 ?
VDR inh: -15%

Results for C/C(=N\Nc1cccc(Cl)c1)c1ccncc1 ?
VDR inh: -3%

How did COc1cccc(-n2nnnc2SCC(=O)Nc2ccc(OC)cc2OC)c1 do in these assays?
VDR inh: 2%

How did O=C1CC(=O)Nc2cc(S(=O)(=O)N3CCN(c4cccc(C(F)(F)F)c4)CC3)ccc2N1 do in these assays?
VDR inh: 12%

Results for CC12CCC(=O)N1C(C(=O)Nc1cc(Cl)ccc1N1CCCC1)CS2 (centres undefined) ?
VDR inh: -2%

How did O=C(COC(=O)CCc1ccccc1)NNC(=O)c1ccccc1 do in these assays?
VDR inh: -5%

How did CN(C(=O)CN1C(=O)c2ccc([N+](=O)[O-])cc2C1=O)C1CCCCC1 do in these assays?
VDR inh: -11%

Results for CCN(C(=O)COC(=O)/C(=C/c1ccccc1)NC(C)=O)c1c(N)n(Cc2ccccc2)c(=O)[nH]c1=O ?
VDR inh: -7%

How did O=C(CN(C(=O)c1ccc(Cl)cc1Cl)N1C(=O)C2C3C=CC(C3)C2C1=O)c1ccc(F)cc1 (centres undefined) do in these assays?
VDR inh: 5%

What do the screens show for `O=C(NCc1ccco1)/C(=C\c1cccs1)NC(=O)c1ccco1`?
VDR inh: -6%

Results for COc1ccc2c(C(=O)CN3CCC(C)CC3)c[nH]c2c1 ?
VDR inh: -9%

The list is partial, so the mix of outcomes need not match the whole.
